Assay outcomes deposited in PubChem BioAssay by ICCB-Longwood Screening Facility, Harvard Medical School.
supercomplex z – modulators of mitochondrial supercomplex assembly, cell-based, luminescence, Hoechst nuclei count (AID 1645838); Cells, luminescence/Hoechst cell count ratio, supercomplex reporter; hits give high values; z-score at 11 µM unless noted; 5% of 2,000 active;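 active = mean z-score of two plates above 1.96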;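 note: control cybrid cells; higher means more mitochondrial supercomplex formation; U2OS-based cells read after two days; 0 = mean of sample wells on the plate; doses worked out from stocks diluted about 900-fold with the highest of each compound shown; many of its hits are not listed in these tables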
supercomplex z cell count – further read-out of supercomplex z, marked with its call; cell count; measured here: cell number, Hoechst nuclei count;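 nuclei per well as mean of two plates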
Starred values were filed as active, the others as inactive; i = inactive; . = no result given. An excerpt (hit frequency here may not be typical).

O=C(Nc1cccc(C(F)(F)F)c1)Nc1cc(S(=O)(=O)NC2CC2)ccc1-c1ccsc1
  supercomplex z: -0.35; supercomplex z cell count: 4406

Cc1ccc(-n2nc(C(C)(C)C)cc2NC(=O)Nc2ccc(OCCN3CCOCC3)c3ccccc23)cc1
  supercomplex z: -0.7; supercomplex z cell count: 5521

CC=C(C)C(=O)OC1C(C)=C[C@]23C(=O)C(C=C(CO)C(O)[C@]12O)C1C(CC3C)C1(C)C (some centres not stated)
  supercomplex z: 1.8; supercomplex z cell count: 5666

CC(C)(C(=O)c1cccnc1)c1cccnc1
  supercomplex z: 0.11; supercomplex z cell count: 6416

OC1CCC(Nc2ncc3nc(Nc4c(F)cc(F)cc4F)n(C4CCOC4)c3n2)CC1 (configuration not stated)
  supercomplex z: 1.4; supercomplex z cell count: 4336

CC(C)(C)Sc1c(CC(C)(C)C(=O)O)n(Cc2ccc(Cl)cc2)c2ccc(OCc3ccc4ccccc4n3)cc12
  supercomplex z: -0.26; supercomplex z cell count: 4912

N#CC(c1ccnc(NCCc2cccnc2)n1)c1nc2ccccc2s1 (configuration not stated)
  supercomplex z: -0.84; supercomplex z cell count: 3066

Cc1cc(C(N)=O)ccc1-n1c(CCC(=O)O)ccc1-c1ccc(-n2ccnc2)cc1
  supercomplex z: -1.2; supercomplex z cell count: 6460

Cn1cnc2c(F)c(Nc3ccc(Br)cc3F)c(C(=O)NOCCO)cc21
  supercomplex z: i; supercomplex z cell count: .

Nc1nc(CC(=O)Nc2ccc(CCNCC(O)c3ccccc3)cc2)cs1 (configuration not stated)
  supercomplex z: -0.32; supercomplex z cell count: 4690

CN(C)CCN(Cc1ccc(-c2ccc(CNCCc3ccccc3)cc2)cc1)C(=O)CCC1CCCC1
  supercomplex z: i; supercomplex z cell count: .

Cc1cc(C)c2c(c1)C(N(Cc1cc(C(F)(F)F)cc(C(F)(F)F)c1)c1nnn(C)n1)CCCN2CC1CCC(C(=O)O)CC1 (configuration not stated)
  supercomplex z: -0.078; supercomplex z cell count: 3870

CC1CN(Cc2ncccn2)CC1c1nc2c(cnn2C2CCOCC2)c(=O)[nH]1 (configuration not stated)
  supercomplex z: -0.21; supercomplex z cell count: 6502

Cc1nc(C#Cc2ccnc(Cl)c2)c(C)n1-c1ccc(F)cc1
  supercomplex z: -0.092; supercomplex z cell count: 7026

CC(C)(F)CC(NC(c1ccc(-c2ccc(S(C)(=O)=O)cc2)cc1)C(F)(F)F)C(=O)NC1(C#N)CC1 (configuration not stated)
  supercomplex z: -0.37; supercomplex z cell count: 4504

N#Cc1ccc(OC2c3ccccc3CC2N2CCCC(N)C2)c(Cl)c1 (configuration not stated)
  supercomplex z: 1.6; supercomplex z cell count: 3852

O=c1[nH]c(-c2ccc(C(F)(F)F)cc2)nc2c1CSCC2
  supercomplex z: -0.29; supercomplex z cell count: 4927

O=C(NC1CCNCC1)c1[nH]ncc1NC(=O)c1c(Cl)cccc1Cl
  supercomplex z: i; supercomplex z cell count: .

CC(=O)c1cnc2ccc(-c3cc(Cl)c(O)c(Cl)c3)nc2c1NC1CCC(CN(C)C)CC1 (configuration not stated)
  supercomplex z: i; supercomplex z cell count: .

COc1cc2nccc(Oc3ccc(NC(=O)Nc4cc(C)on4)c(Cl)c3)c2cc1OC
  supercomplex z: 5.9*; supercomplex z cell count: 1707*

CS(=O)(=O)N1CCc2c(-c3cnc(N)nc3)nc(N3CCOCC3)nc21
  supercomplex z: i; supercomplex z cell count: .

CCC(=O)O[C@]1(C(=O)SCF)C(C)C[C@H]2[C@H]3CC(F)C4=CC(=O)C=C[C@]4(C)[C@@]3(F)C(O)C[C@@]21C (some centres not stated)
  supercomplex z: 0.51; supercomplex z cell count: 4552

O=C1NC(=O)C(c2cnc3ccccn23)=C1c1cn2c3c(cc(F)cc13)CN(C(=O)N1CCCCC1)CC2
  supercomplex z: -0.93; supercomplex z cell count: 2650

Cc1c(C(=O)NCCCO)cnn1-c1nc(-c2cccc(C(F)(F)F)c2)cs1
  supercomplex z: -0.44; supercomplex z cell count: 5961

Entries from the list above containing a Cl atom:
CC(C)(C)Sc1c(CC(C)(C)C(=O)O)n(Cc2ccc(Cl)cc2)c2ccc(OCc3ccc4ccccc4n3)cc12
  supercomplex z: -0.26; supercomplex z cell count: 4912

Cc1nc(C#Cc2ccnc(Cl)c2)c(C)n1-c1ccc(F)cc1
  supercomplex z: -0.092; supercomplex z cell count: 7026

N#Cc1ccc(OC2c3ccccc3CC2N2CCCC(N)C2)c(Cl)c1 (configuration not stated)
  supercomplex z: 1.6; supercomplex z cell count: 3852

O=C(NC1CCNCC1)c1[nH]ncc1NC(=O)c1c(Cl)cccc1Cl
  supercomplex z: i; supercomplex z cell count: .

CC(=O)c1cnc2ccc(-c3cc(Cl)c(O)c(Cl)c3)nc2c1NC1CCC(CN(C)C)CC1 (configuration not stated)
  supercomplex z: i; supercomplex z cell count: .

COc1cc2nccc(Oc3ccc(NC(=O)Nc4cc(C)on4)c(Cl)c3)c2cc1OC
  supercomplex z: 5.9*; supercomplex z cell count: 1707*
